GAA spleen mod: lysosomal alpha-glucosidase (human) modulation; P10253; 240,000 tested, 0.006% active; Potency, µM (series often up to 79.9 µM), for the others: top-dose activity change, negative = inhibition, hits mostly inhibitors; human spleen homogenate, 4-MU-alpha-glucoside fluorescence;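 further: 0% = enzyme with vehicle and -100% = no enzyme basal signal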
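Enzyme source: human spleen homogenate, 1 ug/well. Buffer 50 mM citric acid/K phosphate pH 5.0, 0.01% Tween-20. 4-MU-alpha-glucoside 1 mM; 37 C x 40 min; NaOH/glycine stop; fluorescence.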
IMPase Li cell: membrane-permeable IMPase blocker, potentiated with lithium | CHO-M1 cells, IP1 TR-FRET (IP-One), carbachol + lithium | Potency, µM (series often up to 59.4 µM), for the others: at the top dose activity, negative = IMPase inhibition, usual class: inhibitors | AID 1457 | 210,000 tested, 0.35% active;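 further: IP1 builds up when IMPase is blocked and the TR-FRET signal falls; plate controls were basal vehicle for no effect and high inhibitor control for full effect; nearly all actives have a fitted effect of over 50% in size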
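Test compounds were applied to CHO-M1 cells previously cultured for 16–30 h at 2000 per well. A small lithium amount accompanied them; after 30 min at 37C, IP1 was quantified by TR-FRET.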
GAA inh: inhibitors of human lysosomal alpha-glucosidase; purified human GAA, 4-MU-alpha-glucoside fluorescence; P10253; 200,000 tested, 0.005% active; Potency, µM (top dose mostly 76.9 µM), without a hit: at the highest dose activity change, negative = inhibition, actives largely listed as inhibitors; AID 1466;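 further: plate controls were uninhibited enzyme wells for no effect and no-enzyme background for full effect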
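Fluorescence at Ex 365/Em 440 nm from 4-methylumbelliferone reported enzyme activity after 20 min at room temperature. Reactions used 4 nM enzyme and 400 uM substrate at pH 5.0; curves fitted with the Hill equation.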
GoLoco inh red: RGS12 GoLoco-Gai1 interaction inhibition; Gai1:RGS12 GoLoco peptide FP, rhodamine, 10 min; 230,000 tested, 0.44% active; P63096; Potency, µM (highest dose often 61.6 µM), without a hit: at the top dose activity, negative = inhibition, hits mostly inhibitors; active means well fitted inhibition curve with a large enough effect, not every such curve was filed as active; inactive means no such curve, though single readings can be large or run the other way; further: nearly all actives have a fitted effect of over 30% in size; many of its hits are not listed in these tables
Target sequence (P63096 whole entry, looked up): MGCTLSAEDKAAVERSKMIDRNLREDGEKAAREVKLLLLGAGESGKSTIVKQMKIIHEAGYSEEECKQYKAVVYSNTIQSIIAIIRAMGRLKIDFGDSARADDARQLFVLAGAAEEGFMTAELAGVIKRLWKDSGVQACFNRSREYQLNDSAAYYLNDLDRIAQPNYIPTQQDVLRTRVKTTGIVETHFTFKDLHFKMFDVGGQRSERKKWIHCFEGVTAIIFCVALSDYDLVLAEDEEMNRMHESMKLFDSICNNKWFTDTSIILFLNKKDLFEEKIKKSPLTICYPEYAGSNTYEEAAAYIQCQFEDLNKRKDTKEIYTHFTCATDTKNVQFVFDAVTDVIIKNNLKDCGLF
GAA glycogen mod: GAA glycogen-cleavage inhibition or activation | P10253 | recombinant GAA, glycogen substrate, Amplex Red glucose oxidase fluorescence | Potency, µM (series often up to 76.4 µM), inactives show top-dose activity change, negative = inhibition, actives largely listed as inhibitors | 300,000 tested, 0.38% active;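 further: 0% = full enzyme reaction and -100% = no-enzyme basal signal; the screen sought inhibitors and activators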
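Recombinant human alpha-glucosidase (4 nM final) hydrolysed bovine liver glycogen (30 ug) for 40 min at 37 C in pH 5.0 citrate/phosphate with 0.01% Tween-20. Released glucose detected by glucose oxidase/Amplex Red, Ex 573/Em 610 nm. Compounds up to 77 uM; AC50 from Hill fits.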
The depositor's hits bear a star; ? = inconclusive; nt = not tested or not shown; & = joins results of further samples; [ ] = dose if it differs, or a comment. Unless noted, the call rests on the fitted dose curve; in most records, active means well fitted curve in the direction sought with a large enough effect; inconclusive means small, poorly fitted or top-dose-only effect, or another doubt; inactive means no such curve, though single readings can be large; an effect the other way counts as inactive or inconclusive. Unless noted, on the % scale 0 is the no-effect control and ±100 the full control effect; potency means the concentration at half of the fitted maximal effect. This is a subset. The share of hits here may be higher or lower than overall.

GAA spleen mod | GAA inh | compound | GAA glycogen mod | GoLoco inh red | IMPase Li cell
0%[29.1 µM] | nt | CC[N+](CC)(CC)CC[C@](O)(c1ccccc1)C1CCCCC1 | nt | -11%[21.6 µM] | 27%
-1% | nt | CNc1cc(OC)c(C(=O)N[C@@H]2CCN(Cc3ccccc3)[C@H]2C)cc1Cl | nt | -3% | 20%
-13% | nt | NCC(O)c1ccc(O)c(O)c1 (configuration not stated) | nt | 9% | 17%
-7% | ? | CCn1nc(C(=O)O)c(=O)c2cc3c(cc21)OCO3 | 6% | -12% | -4%&5%&-3%&-4%&-3%
7% | -11%[15.4 µM] | CC(C)OC(=O)C(C)(C)Oc1ccc(C(=O)c2ccc(Cl)cc2)cc1 | -2% | 13% | -1%&20%&15%&4%
7% | nt | C#C[C@]1(O)CCC2C3CCC4=CC(=O)CCC4C3CC[C@@]21C (some centres not stated) | nt | -3% | 9%
1% | nt | CC(=O)OCC(=O)C1(O)CCC2C3CCC4=CC(=O)C=CC4(C)C3C(O)CC21C (configuration not stated) | -2% | 12% | nt
-16%[29.1 µM] | nt | COc1ccc(OC)c([C@H](O)CNC(=O)CN)c1 | nt | 8%[21.6 µM] | -1%

Already shown: an excerpt of the list.
GAA spleen mod | GAA inh | compound | GAA glycogen mod | GoLoco inh red | IMPase Li cell
1% | nt | CC(=O)OCC(=O)C1(O)CCC2C3CCC4=CC(=O)C=CC4(C)C3C(O)CC21C (configuration not stated) | -2% | 12% | nt
-16%[29.1 µM] | nt | COc1ccc(OC)c([C@H](O)CNC(=O)CN)c1 | nt | 8%[21.6 µM] | -1%

Remaining list, next part
GAA spleen mod | GAA inh | compound | GAA glycogen mod | GoLoco inh red | IMPase Li cell
-6%[29.1 µM] | nt | CCC(=O)O[C@@H]1[C@H](C)O[C@H](O[C@H]2[C@@H](N(C)C)[C@H](O)[C@@H](O[C@@H]3[C@@H](CC=O)C[C@@H](C)[C@@H](O)/C=C\C=C/C[C@@H](C)OC(=O)C[C@@H](OC(=O)CC)[C@H]3OC)O[C@H]2C)C[C@]1(C)O | nt | 8%[21.6 µM] | 0%
nt | nt | OC[C@H](S)CS | nt | -11%[14.2 µM] | 17%
-8% | nt | CSc1ccc(C(=O)c2[nH]c(=O)[nH]c2C)cc1 | nt | -16% | 0%
5%[29.1 µM] | nt | CCN1CCN(C(=O)N[C@H](C(=O)N[C@@H]2C(=O)N3C(C(=O)O)=C(CSc4nnnn4C)CS[C@@H]23)c2ccc(O)cc2)C(=O)C1=O | nt | 5%[21.6 µM] | 3%
-2% | nt | CC1O[C@@H](O[C@@H]2C(O)C[C@H](O[C@@H]3C(O)C[C@@H](OC4CC[C@@]5(C)C6CC(O)[C@@]7(C)C(C8=CC(=O)OC8)CC[C@@]7(O)C6CC[C@@H]5C4)OC3C)OC2C)CC(O)[C@H]1O (some centres not stated) | nt | -2% | 3%
-1%&0% | ? | CCCCC1=NC2(CCCC2)C(=O)N1Cc1ccc(-c2ccccc2-c2nn[nH]n2)cc1 | -4% | -4%&8% | 2%
-7% | nt | CCCCC(=O)N(Cc1ccc(-c2ccccc2-c2nn[nH]n2)cc1)C(C(=O)O)C(C)C (configuration not stated) | nt | 12% | 21%
8% | nt | CCCC(=O)c1ccc(O)cc1O | -4% | 10% | nt
4%&4% | nt | NC1CONC1=O (configuration not stated) | nt | 18%&-3% | -5%&10%
1%[29.1 µM] | nt | C#C[C@@]1(O)CC[C@@H]2[C@@H]3CCC4=C(CCC(=O)C4)[C@H]3CC[C@]21C | nt | 2%[21.6 µM] | -6%
12% | nt | CCOC(=O)n1ccn(C)c1=S | nt | 8% | 7%&0%
-4% | nt | CC(C)C[C@@H](N)C(=O)O | nt | -10% | -5%
-3%&4%&-8% | nt | Nc1nc2ncc(CNc3ccc(C(=O)NC(CCC(=O)O)C(=O)O)cc3)nc2c(=O)[nH]1 (configuration not stated) | nt | -6%&6%&-69% | 25%&-2%&-3%
8% | 2%[15.4 µM] | CC1(C)SC2[C@H](NC(=O)C(NC(=O)N3CCNC3=O)c3ccccc3)C(=O)N2C1C(=O)O (some centres not stated) | 2% | 11% | 2%
1%[29.1 µM] | nt | CC1(C)S[C@@H]2[C@H](NC(=O)[C@@H](NC(=O)N3CCNC3=O)c3ccccc3)C(=O)N2[C@H]1C(=O)O | nt | 5%[21.6 µM] | -14%
19% | nt | Nc1nc2ncc(CNc3ccc(C(=O)N[C@@H](CCC(=O)O)C(=O)O)cc3)nc2c(=O)[nH]1 | ? | 5% | 18%&-2%
-7% | nt | COc1c(N2C[C@@H]3CCCN[C@H]3C2)c(F)cc2c(=O)c(C(=O)O)cn(C3CC3)c12 | nt | 10% | 4%
-2% | nt | Nc1ncnc2c1ncn2[C@@H]1O[C@H](COP(=O)(O)OP(=O)(O)OP(=O)(O)O)[C@@H](O)[C@H]1O | nt | 3% | -2%

Laid out differently: 13 of the compounds above.
Compound | GAA spleen mod | GAA inh | GAA glycogen mod | GoLoco inh red | IMPase Li cell
CC[N+](CC)(CC)CC[C@](O)(c1ccccc1)C1CCCCC1 | 0%[29.1 µM] | nt | nt | -11%[21.6 µM] | 27%
CNc1cc(OC)c(C(=O)N[C@@H]2CCN(Cc3ccccc3)[C@H]2C)cc1Cl | -1% | nt | nt | -3% | 20%
NCC(O)c1ccc(O)c(O)c1 (configuration not stated) | -13% | nt | nt | 9% | 17%
CCn1nc(C(=O)O)c(=O)c2cc3c(cc21)OCO3 | -7% | ? | 6% | -12% | -4%&5%&-3%&-4%&-3%
CC(C)OC(=O)C(C)(C)Oc1ccc(C(=O)c2ccc(Cl)cc2)cc1 | 7% | -11%[15.4 µM] | -2% | 13% | -1%&20%&15%&4%
C#C[C@]1(O)CCC2C3CCC4=CC(=O)CCC4C3CC[C@@]21C (some centres not stated) | 7% | nt | nt | -3% | 9%
CC(=O)OCC(=O)C1(O)CCC2C3CCC4=CC(=O)C=CC4(C)C3C(O)CC21C (configuration not stated) | 1% | nt | -2% | 12% | nt
COc1ccc(OC)c([C@H](O)CNC(=O)CN)c1 | -16%[29.1 µM] | nt | nt | 8%[21.6 µM] | -1%
CCC(=O)O[C@@H]1[C@H](C)O[C@H](O[C@H]2[C@@H](N(C)C)[C@H](O)[C@@H](O[C@@H]3[C@@H](CC=O)C[C@@H](C)[C@@H](O)/C=C\C=C/C[C@@H](C)OC(=O)C[C@@H](OC(=O)CC)[C@H]3OC)O[C@H]2C)C[C@]1(C)O | -6%[29.1 µM] | nt | nt | 8%[21.6 µM] | 0%
OC[C@H](S)CS | nt | nt | nt | -11%[14.2 µM] | 17%
CSc1ccc(C(=O)c2[nH]c(=O)[nH]c2C)cc1 | -8% | nt | nt | -16% | 0%
CCN1CCN(C(=O)N[C@H](C(=O)N[C@@H]2C(=O)N3C(C(=O)O)=C(CSc4nnnn4C)CS[C@@H]23)c2ccc(O)cc2)C(=O)C1=O | 5%[29.1 µM] | nt | nt | 5%[21.6 µM] | 3%
CC1O[C@@H](O[C@@H]2C(O)C[C@H](O[C@@H]3C(O)C[C@@H](OC4CC[C@@]5(C)C6CC(O)[C@@]7(C)C(C8=CC(=O)OC8)CC[C@@]7(O)C6CC[C@@H]5C4)OC3C)OC2C)CC(O)[C@H]1O (some centres not stated) | -2% | nt | nt | -2% | 3%
